CapD inh = CapD enzyme inhibition; purified CapD enzyme, fluorescence intensity read-out; stronger effect = lower value; some hits fall short of the stated cut; z-score (no concentration beside the values); AID 492967; actives 0.23% (n = 140,000);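 active means z-score under -4 in either of two replicates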;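 further: stock transfer was 100 nL into about 40 µL; score is relative to mean and spread of the plate; one replicate is shown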
AID504770 = E. coli YBA685 growth inhibition, screen for V. cholerae RctB inhibitors | z-score (test concentration not listed) | E. coli YBA685 rctB-dependent plasmid, OD600 growth, 3 h; stronger effect = lower value | AID 504770 | actives 0.27% (n = 130,000);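 active means z-score under -2 on both plates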;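 further: wells of about 30 µL received 100 nL stock; score is relative to mean and SD of the test wells; the first replicate is given; strong numbers were not always called active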
The depositor's hits bear a star; x = not tested or not shown; & = joins results of further samples. An unsorted share of the library, and some 0.37% of all compounds hit somewhere here.

SMILES	CapD inh	AID504770
COc1ccc(C2SCCN2S(=O)(=O)c2ccc(-c3ccccc3)cc2)cc1OC (centres undefined)	0.17	x
CC(C)Cn1nc(C(N)=O)c2ccccc2c1=O	x	-0.85
Clc1cnccn1	-0.59	x
N#Cc1c(=O)c2ccccc2n2ccccc12	43	-0.5
CCOc1ccc(NC(=O)NCCN2C(C)CCCC2C)cc1 (centres undefined)	0.02	0.4
CCC(=O)Nc1ccc(C2=NNC(=NCCN3CCOCC3)SC2)cc1	x	1.1
CC(=O)NC(C(=O)NC1CC1)C(C)C (centres undefined)	x	1.2
CCN1CCN(c2cc(C)c3cc(NC(=O)COc4ccc(Cl)cc4)ccc3n2)CC1	0.71	x
CCOc1ccc(C(=O)N(Cc2ccc(N(C)C)cc2)CC2CCCO2)cc1 (centres undefined)	-0.38	-0.65
O=c1cc(CCl)c2c(ccc3ccccc32)o1	8	-0.5
O=C(Nc1nccs1)c1cn(-c2ccccc2)nc1-c1ccccc1	-0.08	0.95
CC(C)NC(=O)C1CCN(C(=O)c2ccc(Cl)cc2)CC1	x	0.35
CCC(=O)Nc1cccc2c(NC(=O)CC)cccc12	1.2	x
COC(=O)C1=C(N)N(c2ccc(S(N)(=O)=O)cc2)C2=C(C(=O)CCC2)C1c1ccc(OC)c(OC)c1 (centres undefined)	-0.61	x
CC(C)n1ncc2c(C(=O)NC3CCCCC3)cc(C3CC3)nc21	x	-0.1
COc1cc(-c2nc(-c3cccc(C(F)(F)F)c3)no2)cc(OC)c1OC	0.69	x
Cn1ncc(NC(=O)O/N=C/c2ccccc2)c1-n1cccc1	0.085	-1
CCCCNC(=O)C1Cc2cc(Cl)ccc2O/C1=N\O (centres undefined)	-0.03	0.1
CCCOC(=O)C1=C(C)NC2=C(C(=O)CC(c3ccc(OC)cc3)C2)C1c1ccc(O)c(OCC)c1 (centres undefined)	14	x
COCC(C)NCc1ccc(OC)c(OC)c1 (centres undefined)	x	-1
Cc1ccc(C(=O)CC(=O)c2ccccc2O)cc1	-2	-0.75
CCOC(=O)C1CCCCN1S(=O)(=O)c1ccc2[nH]c3c(c2c1)CCCC3 (centres undefined)	0.73	-0.4
CCC1=C(C(=O)OC)C(c2cc(OC)c(OC)cc2OC)n2ncnc2N1 (centres undefined)	-0.75	-0.5
CCNC(=S)NC(=NC1CCCC1)Nc1nc(C)cc(C)n1	-0.96	1.9
O=C(COc1ncnc2ccc(Br)cc12)N1CCCCC1	x	-0.25
CCNC(=O)c1c(C)nc2ccccn12	x	-1.3
C=CCn1c(N)c(C(=O)OCC)c2nc3ccccc3nc21	x	1.8
O=C(N/N=C/c1cc2ccccc2o1)c1ccccc1Cc1ccccc1	3.1	x
O=[N+]([O-])c1cc(C(F)(F)F)ccc1NCCNC(=S)Nc1ccccc1	0.12	x
O=S(=O)(Cc1ccc(Cl)cc1)Nc1nc2ccccc2s1	0.35	-0.7
Cc1csc2sc(C(=O)N3CCOCC3)c(C)c12	-2.4	x
COc1cccc(C2C(C(=O)OC(C)C)=C(C)NC3=C2C(=O)CC(c2ccc(Cl)cc2)C3)c1OC (centres undefined)	2.5	x
FC(F)(F)c1cnc(-n2cc3c(n2)-c2ccccc2CC3)c(Cl)c1	0.46	x
CN1C2CCC1CC(NC(=O)CS(=O)(=O)c1ccc(F)cc1F)C2 (centres undefined)	-0.11	-0.3
CCCCN(CCCC)S(=O)(=O)c1ccc2c3c(cccc13)C(=O)N2	10	x
C/C(=C\C(=O)c1cccnc1)Nc1ccccc1O	x	0.25
C/C(=N\NC1=NCCN1Cc1ccccc1)c1ccccc1	0.095	x
Cc1cc(N2CCCCC2)nc2ccc(NC(=O)/C=C/c3ccco3)cc12	-0.93	-0.25
CN(C)c1ccc(-c2n[nH]c(=O)c3ccccc23)cc1N	0.38	x
CCOC(=O)c1c(NC(=O)Cn2cnc3sccc3c2=O)sc(C)c1CC	x	-0.65

Given as labelled records: entries from further up
CCCCN(CCCC)S(=O)(=O)c1ccc2c3c(cccc13)C(=O)N2
  CapD inh = 10 | AID504770 = x
C/C(=C\C(=O)c1cccnc1)Nc1ccccc1O
  CapD inh = x | AID504770 = 0.25
C/C(=N\NC1=NCCN1Cc1ccccc1)c1ccccc1
  CapD inh = 0.095 | AID504770 = x
Cc1cc(N2CCCCC2)nc2ccc(NC(=O)/C=C/c3ccco3)cc12
  CapD inh = -0.93 | AID504770 = -0.25

(next part)
SMILES	CapD inh	AID504770
COc1ccc(/C=C2/C(=O)N(Cc3ccccc3)N=C2C)cc1	x	-0.65
O=C(Cc1cccs1)N1CCc2ccccc2C1	0.005	-0.2
O=C(OC(Cn1cncn1)c1ccc(Cl)cc1)c1ccccc1 (centres undefined)	-0.11	0.7
CC(C)=CC(=O)Nc1ccccc1C(F)(F)F	-0.14	-0.9
CC[C@@]1(O)C(=O)OCc2c1cc1n(c2=O)Cc2cc3ccccc3nc2-1	0.09&-0.39	-0.75
O=c1c(N2CCOCC2)nnc2sc3ccccc3n12	-0.23	-1.6
CC1=NOC(=O)/C1=C/c1ccc(N(C)C)cc1	-0.58	1.2
CN1C(=O)COc2ccc(C(=O)CSc3nnc(-c4ccoc4)c(-c4ccoc4)n3)cc21	x	0.8
COC(=O)COc1ccc2c3c(c(=O)oc2c1)CCC3	19	0.35
O=C(O)CNC(=S)N(Cc1ccccc1)Cc1cccs1	-0.41	1.9
NC(=O)CCc1cn(-c2ccccc2)nc1-c1ccccc1	-0.045	-0.5
CCOC(=O)c1csc(CS(=O)(=O)Cc2ccco2)n1	-0.66	0.7
CC1(C(=O)NC2CCCC2)CCC(=O)N1C1CCCCC1 (centres undefined)	0.13	-0.35
CC1CC(C)(C)Cc2c1sc(NC(=O)c1ccco1)c2C#N (centres undefined)	x	0.4
CC(=O)N(C(C)=O)c1ccc2c(c1)C(C)(C)C(C)N2C (centres undefined)	x	-0.2
CCCSc1nnc2n(N)c(=O)c3ccccc3n12	0.53	-0.7
N#Cc1ccccc1COC(=O)CNC(=O)c1ccccc1	x	0.2
Clc1cccc(-c2nc(NCCN3CCOCC3)nc3c2COc2ccccc2-3)c1	2.1	-0.5
CCOc1ccc(C(Nc2ccccc2)P2(=S)OCC(C)(C)CO2)cc1 (centres undefined)	0.22	x
C=CCN1C(=O)S/C(=C/c2cc(Cl)cc(OC)c2O)C1=O	-0.41	3
C=CCN(C(=O)CSc1cc(=O)n(C)c2ccccc12)c1ccccc1	-0.34	-1.2
Clc1ccc(C2=NNC(=NCCCN3CCOCC3)SC2)c(Cl)c1	x	0.95
CCC(C)C(=O)NCCOc1ccc(OC)cc1 (centres undefined)	0.06	x
CC(C)C1NC(=O)N(c2ccccc2)C1=O (centres undefined)	0.42	-0.1
CCOc1ccc(CCNC(=O)c2cn3c4c(ccc(Cl)c4c2=O)OC(C)C3)cc1 (centres undefined)	16	-0.15
Cc1ccc(N2C3=[N+](CCCCC3)CC2(O)c2ccc(C)cc2)cc1 (centres undefined)	-0.59	x
O=C(NCc1nnc(SCC(=O)N2N=C(c3cccs3)CC2c2ccc(F)cc2)n1-c1ccccc1)c1ccco1 (centres undefined)	25	x
CCN(CC)CCNC(=O)c1cc(S(C)(=O)=O)ccc1OC	-1.3&-0.54	0.3
Cc1ccc2oc(=O)c3cnn(CC(=O)N(Cc4ccco4)C4CCCC(C)C4C)c3c2c1 (centres undefined)	0.035	1.1
O=c1[nH]nc(-c2cc(C(F)(F)F)cc(C(F)(F)F)c2)c2ccccc12	-0.71	0.3

4 entries from above, arranged by length of the SMILES, smallest number first:
SMILES	CapD inh	AID504770
CCNC(=O)c1c(C)nc2ccccn12	x	-1.3
Cc1csc2sc(C(=O)N3CCOCC3)c(C)c12	-2.4	x
CC1=NOC(=O)/C1=C/c1ccc(N(C)C)cc1	-0.58	1.2
CCCCN(CCCC)S(=O)(=O)c1ccc2c3c(cccc13)C(=O)N2	10	x

Continued:
SMILES	CapD inh	AID504770
O=C(CSC1=NCCS1)Nc1nccs1	-0.12	-0.7
CN(C)CCNc1nc2ccccc2[nH]1	0.14	1.4
CCOC(=O)NCCc1c(F)cccc1Cl	1	-0.4
COc1ccc(C2C(C(=O)Nc3cccc(C(F)(F)F)c3)=C(C)NC3=C2C(=O)CCC3)c(OC)c1 (centres undefined)	27	x
COc1ccc(Nc2oc(-c3ccccc3Cl)nc2C#N)cc1	14	-0.4
CC(NS(=O)(=O)c1ccc(Oc2cccc(Cl)c2C#N)cc1)C(C)(C)C (centres undefined)	-0.17	-0.45
O=C(COC(=O)C1CCCCC1)Nc1ccc(Cl)cn1	x	-1.1
CC(C)N1CCC(NC(=S)NCc2ccccc2)CC1	x	-0.1
NNC(=O)c1cc(C(F)(F)F)cc(C(F)(F)F)c1	-0.68	x
O=C(Cn1c(SCC(=O)N2CCc3ccccc32)nc2ccccc21)NC1CC1	x	-0.95
COc1cccc(NC(=O)c2sc3nc4c(c(-c5cccs5)c3c2N)CCCC4)c1	-0.7	x
CC1CCC/C(=N/NC(=O)c2c[nH]c3ccccc23)C1 (centres undefined)	x	0.6
Cc1c(S(=O)(=O)C(C)C)c(N)n(Cc2ccc(F)c(Cl)c2)c1C	3.8	0.55
CC(C)c1ccc(NNC(N)=S)cc1	-0.8	x
O=S(=O)(NCc1cccc2ccccc12)c1ccccc1	0.11	1.9
O=S(=O)(c1ccccc1)N1CCC(c2nc3ccccc3[nH]2)CC1	x	-0.15
COc1ccc(NC(=O)C(NC(=O)C2CCCCC2)C(C)C)cc1 (centres undefined)	3.1	2.3
COc1ccc(/C(O)=C2/C(=O)C(=O)N(c3ccc(C(=O)O)cc3)C2c2ccccc2)cc1 (centres undefined)	-0.3	x
O=C(OCC(=O)N1CCCC1=O)c1ccc2c(c1)OCO2	x	0.55
COc1ccc(CC(=O)OCC(=O)Nc2ccc(Br)cc2)cc1	0.08	0.35

Copied from the list.
For AID504770, `O=S(=O)(NCc1cccc2ccccc12)c1ccccc1` is entered as 1.9
For CapD inh, `COc1ccc(CC(=O)OCC(=O)Nc2ccc(Br)cc2)cc1` is entered as 0.08
For AID504770, `O=S(=O)(c1ccccc1)N1CCC(c2nc3ccccc3[nH]2)CC1` is entered as -0.15
For AID504770, `Cc1c(S(=O)(=O)C(C)C)c(N)n(Cc2ccc(F)c(Cl)c2)c1C` is entered as 0.55
For AID504770, `CC1CCC/C(=N/NC(=O)c2c[nH]c3ccccc23)C1` (centres undefined) is entered as 0.6
For AID504770, `O=C(OCC(=O)N1CCCC1=O)c1ccc2c(c1)OCO2` is entered as 0.55
For CapD inh, `COc1ccc(/C(O)=C2/C(=O)C(=O)N(c3ccc(C(=O)O)cc3)C2c2ccccc2)cc1` (centres undefined) is entered as -0.3

The listing picks up with the 2 entries that preceded the break.
SMILES	CapD inh	AID504770
O=C(OCC(=O)N1CCCC1=O)c1ccc2c(c1)OCO2	x	0.55
COc1ccc(CC(=O)OCC(=O)Nc2ccc(Br)cc2)cc1	0.08	0.35
CC1(C)c2ccccc2N(CC(=O)NCc2ccccc2)C12C=Cc1c(ccc3ccccc13)O2 (centres undefined)	-0.32	x
CCc1ccc(C2c3c(oc4ccccc4c3=O)C(=O)N2c2ccccn2)cc1 (centres undefined)	-0.57	-0.65
Cc1ccc(-c2csc3ncnc(N4CCN(c5ccccn5)CC4)c23)cc1	-0.41	x
CCOc1ccccc1C(=O)OCC(=O)Nc1cccc(Cl)c1	-0.28	-0.05
O=C(C1CC1)N1CCN=C1SCc1c(F)cccc1Cl	x	-0.9
O=C(SC1=NCCc2ccccc21)c1ccccc1	-0.68	-1.6
c1ccc(NCc2ccc3c(c2)OCO3)cc1	0.1	0.05
O=C(NC(c1ccccc1)c1ccccc1)c1ccccc1Cl	0.01	-0.25
O=C(O)c1cc(NC(=O)c2ccc(NC(=O)c3ccco3)cc2)cc(C(=O)O)c1	-0.26	-0.45
COc1ccc(NC(=O)c2cc3cccc(OC)c3oc2=Nc2ccc(C(=O)O)cc2)c(OC)c1	-0.43	x
CCC(=O)c1ccc(OCC(=O)NC2(C#N)CCCCC2)cc1	x	1.7
COc1ccc(NCC(=O)N/N=C/C2=CCC3CC2C3(C)C)cc1 (centres undefined)	x	0.6
Cc1ccc(NC(=O)CSC2=C(C#N)C3(CCCCC3)C(C#N)C(=O)N2)c(C)c1 (centres undefined)	0.2	0
O=C(CSc1ncn[nH]1)Nc1ccccc1-c1ccccc1	0.11	1.1
CC(C)NC(=O)c1ccc(NC2=NC3CS(=O)(=O)CC3S2)cc1 (centres undefined)	0.65	-0.1
N/N=C(\c1ccccc1)c1cc(Br)ccc1N	-0.34	1.4
Fc1cccc(Cl)c1-c1nn[nH]n1	1	-0.55
CCN1CCN(c2ccccc2N)CC1	x	-0.5
CC(C)Cn1[nH]c(CC(=O)NN)cc1=O	x	0.6
COc1ccccc1-c1noc(-c2cccc(Cl)c2)n1	0.58	-1
S=c1[nH]nc(Cc2cccc3ccccc23)o1	0.11	-1.1
CCOc1ccccc1NC(=O)c1c(NCc2ccncc2)sc2c1CCCCC2	0.36	x
Cc1nc(N)sc1C	x	1.4
CC1(C)OC(=O)CC1C(=O)O (centres undefined)	x	-0.6
O=C(Cc1n[nH]c(=O)c2ccccc12)OCc1cc(=O)n2cc(Br)ccc2n1	x	0.8
CCOc1ccc(-n2c(=S)sc3c(=O)[nH]c(SCC(=O)NCC4CCCO4)nc32)cc1 (centres undefined)	-0.16	x
O=C1C(=O)N(c2ccccn2)C(c2cccnc2)/C1=C(/O)c1ccccc1 (centres undefined)	-0.14	x
CC1CCCCC1NC(=O)c1cc2sccc2n1C (centres undefined)	-0.51	-0.7
CCOC(=O)C(=O)N1c2ccccc2-c2c(ssc2=S)C1(C)C	0.71	x
CN1C2CCC1CC(NC(=O)CSc1ccc(C(C)(C)C)cc1)C2 (centres undefined)	0.53	-0.3
Cc1cc(NC(=O)Cc2cc(F)cc(F)c2)no1	-0.09	-1.1
CC1CN(P2(=O)C=C(c3ccccc3)OC(c3ccccc3)=C2)CC(C)O1 (centres undefined)	x	-0.1
CC(=O)Oc1cc(C)c2c(c1)oc(=O)c1ccccc12	1.6	0.6
N=C(N)N=Nc1ccc(O)cc1	x	0.75
